FEN1 inhibitor = human FEN1 inhibition. P39748. hit rate 0.35% among 390,000. Recombinant FEN1 flap cleavage, fluorescence, 15 min. AID 588795. Potency, µM (doses to about 114 µM), for the others: top-dose activity change, negative = inhibition, hits mostly inhibitors; also: nearly all actives have a fitted effect of over 65% in size
Target sequence (P39748 whole entry, looked up): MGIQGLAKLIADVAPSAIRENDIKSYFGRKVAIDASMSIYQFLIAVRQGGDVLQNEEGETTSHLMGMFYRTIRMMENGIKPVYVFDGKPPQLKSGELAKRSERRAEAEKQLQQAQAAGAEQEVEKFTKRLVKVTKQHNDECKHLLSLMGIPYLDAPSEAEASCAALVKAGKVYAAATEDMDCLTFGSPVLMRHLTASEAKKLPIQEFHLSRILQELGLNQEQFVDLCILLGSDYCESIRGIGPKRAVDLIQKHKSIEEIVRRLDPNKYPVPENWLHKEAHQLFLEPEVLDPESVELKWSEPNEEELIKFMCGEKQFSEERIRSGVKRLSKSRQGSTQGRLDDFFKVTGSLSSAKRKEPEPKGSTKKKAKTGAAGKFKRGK
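Potency values derive from four-parameter Hill fits of normalized qHTS data. The reaction used 10 nM FEN1 preincubated 15 min at room temperature with compound, then 50 nM DNA substrate, read at 0 and 15 min.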
N370S GC mod = inhibitors or activators of N370S glucocerebrosidase for Gaucher disease; P04062; N370S GC spleen homogenate, 4MU-glucoside fluorescence; Potency, µM (highest dose often 59.4 µM), inactives show top-dose activity change, negative = inhibition, actives largely listed as inhibitors; hit rate 0.092% among 330,000; AID 2101;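 also: 0% = full enzyme activity and -100% = no enzyme basal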
Starred values were filed as active, the others as inactive; ? = inconclusive; . = not tested or not shown; & = joins results of further samples; [ ] = remark or other dose. Calls follow the shape of the dose curve; as a rule, active = well fitted curve in the direction sought with a large enough effect; inconclusive = small, poorly fitted or top-dose-only effect, or another doubt; inactive = no such curve, though single readings can be large; an effect the other way counts as inactive or inconclusive. Unless noted, % is scaled to controls: 0 for no effect and ±100 for the full control effect; potency is read from the fitted curve at half-maximal effect. The list is partial, and most or all hits are left out here.

The first seven compounds, to show the layout:
SMILES	FEN1 inhibitor	N370S GC mod
O=P(CCNCc1ccco1)(c1ccccc1)c1ccccc1	7%	2%
Cc1ccc(NC(=O)Cn2nnc(C(=O)NCc3ccco3)c2N)c(C)c1	-1%	1%
N#Cc1ccsc1NC(=O)CSc1nnc(-c2ccccc2)o1	-15%	6%
COc1cc(C(Nc2ccc3c(c2)OCO3)C(=O)NC2CCCCC2)cc(OC)c1OC (stereo not drawn)	0%	-6%
Nc1cc2ccccc2oc1=O	-10%	2%
O=C(COC(=O)CNS(=O)(=O)c1ccc(F)c(F)c1F)Nc1ccc(OC(F)F)cc1	2%	21%
Cc1cc(C)c(S(=O)(=O)Nc2cc(C)on2)c(C)c1	-10%	-12%

Results (from the top)
SMILES	FEN1 inhibitor	N370S GC mod
O=P(CCNCc1ccco1)(c1ccccc1)c1ccccc1	7%	2%
Cc1ccc(NC(=O)Cn2nnc(C(=O)NCc3ccco3)c2N)c(C)c1	-1%	1%
N#Cc1ccsc1NC(=O)CSc1nnc(-c2ccccc2)o1	-15%	6%
COc1cc(C(Nc2ccc3c(c2)OCO3)C(=O)NC2CCCCC2)cc(OC)c1OC (stereo not drawn)	0%	-6%
Nc1cc2ccccc2oc1=O	-10%	2%
O=C(COC(=O)CNS(=O)(=O)c1ccc(F)c(F)c1F)Nc1ccc(OC(F)F)cc1	2%	21%
Cc1cc(C)c(S(=O)(=O)Nc2cc(C)on2)c(C)c1	-10%	-12%
CNC(=O)COC(=O)c1ccc2c(c1)NC(=O)C1CCCN21 (stereo not drawn)	.	-1%
Cc1cc(NS(=O)(=O)c2cccc([N+](=O)[O-])c2)no1	-1%	-2%
O=C(CSC1=NC(=O)C(c2ccccc2)C(=O)N1)Nc1ccccc1[N+](=O)[O-] (stereo not drawn)	-12%	2%
O=C(CCl)NC(=O)NC12CC3CC(CC(C3)C1)C2	-4%	-4%
Cc1cc(OCC(=O)OCC(=O)Nc2cc(S(=O)(=O)N3CCOCC3)ccc2Cl)ccc1Cl	6%	.
Cn1c(NC(=S)Nc2ccccc2)nc2ccccc21	0%	3%
Nc1nonc1C(=O)NCCNC(=O)c1cccs1	8%	0%
CC(C)Oc1ccc(OCCn2c(S(=O)(=O)O)nc3c(N)ncnc32)cc1	16%	-3%
CC(NC(=O)COc1cccnc1[N+](=O)[O-])c1ccc(Cl)cc1Cl (stereo not drawn)	-4%	-11%
COc1ccc(CN2C(=O)NC3(CCCCC3)C2=O)cc1F	9%	-3%
Cc1cc(C)c(C(=O)C(C)OC(=O)C2=COCCO2)cc1C (stereo not drawn)	3%	2%
CCN(CC)c1ccc(NC(=O)C(C)C)cc1	-2%	2%
COCCn1c(=O)[nH]c2cc(C(=O)NCc3ccccc3)ccc2c1=O	2%	.

Reformatted with each value named: 4 of the compounds above
N#Cc1ccsc1NC(=O)CSc1nnc(-c2ccccc2)o1
  FEN1 inhibitor = -15%	N370S GC mod = 6%
COc1cc(C(Nc2ccc3c(c2)OCO3)C(=O)NC2CCCCC2)cc(OC)c1OC (stereo not drawn)
  FEN1 inhibitor = 0%	N370S GC mod = -6%
Nc1cc2ccccc2oc1=O
  FEN1 inhibitor = -10%	N370S GC mod = 2%
O=C(COC(=O)CNS(=O)(=O)c1ccc(F)c(F)c1F)Nc1ccc(OC(F)F)cc1
  FEN1 inhibitor = 2%	N370S GC mod = 21%

(further entries)
SMILES	FEN1 inhibitor	N370S GC mod
CCOC(=O)CNC(=O)C1(/C=C/c2ccccc2)CC(=O)N1c1ccc(OC)cc1 (stereo not drawn)	-8%	-5%
CC(=O)Nc1cc2cc(NS(=O)(=O)c3ccc(C)cc3)ccc2oc1=O	6%	-1%
COc1ccc(NC(=O)CSc2nncn2C)c([N+](=O)[O-])c1	-13%	0%
CC(C)C[C@H](NC(=O)c1[nH]cnc1C(=O)Nc1ccc(CNC(=O)OC(C)(C)C)cc1)C(=O)OCc1ccccc1	?	7%
O=C(C1CCN(S(=O)(=O)c2cccc3nsnc23)CC1)N1CCc2ccccc21	-8%	-2%
c1ccc2c(c1)NC(CN1CCOCC1)CO2 (stereo not drawn)	3%	-3%
Cc1nnc(N2CCCC(C(=O)NCc3cccc(F)c3)C2)c2nn(-c3ccccc3)c(C)c12 (stereo not drawn)	-20%	-6%
CC(=O)Nc1ccc(S(=O)(=O)NNC(=O)C(=O)NNc2ccccn2)cc1	6%	3%
CN(C)CCN(CC1CCCN(Cc2ccccc2F)C1)C(=O)c1ccc(F)cc1 (stereo not drawn)	23%	.
CC1CN(C(=O)COC(=O)c2cccc(NS(=O)(=O)c3ccccc3)c2)CC(C)O1 (stereo not drawn)	2%	-16%
O=C(CN(Cc1cccs1)C(=O)CN1C(=O)COc2ccccc21)NCc1ccco1	4%	?
CC(=O)Nc1ccc(NC(=O)C(C)OC(=O)CCC2CCCCC2)cc1 (stereo not drawn)	4%	1%
CCOC(=O)C1CCN(C(=O)c2ccccc2N(C)S(C)(=O)=O)CC1	5%	7%
COc1ccc(CCC(=O)NCCc2ccc(OC)c(OC)c2)cc1	-7%	-22%
C[n+]1cnn2c1SCC1(COC1)C2	-7%	4%
COc1ccccc1NC(=O)c1csc2c1CCCC2	-1%	.
CCO[C@H]1OC(C(=O)NCc2ccccc2)=C[C@@H](C2CC2)[C@@H]1CCCO	-3%	-2%
Cc1ccc(Cn2ccnc2SCC(=O)NCc2ccccc2Cl)cc1	-6%	.
Cc1n[nH]c(=S)n(/N=C/c2cccc([N+](=O)[O-])c2)c1=O	1%	3%
CC1Cc2ccccc2N1C(=O)c1ccc(F)c(S(=O)(=O)N2CCOCC2)c1 (stereo not drawn)	-7%	.
Cc1noc(-c2ccccc2OC(=O)c2ccccc2)n1	-10%	-14%
Cn1c(=O)c2[nH]c(NCCCN3CCOCC3)nc2n(C)c1=O	2%	6%
Cc1noc(C)c1S(=O)(=O)NCc1ccc2c(c1)OCO2	-14%	-3%
Cc1cccc2nc(COc3ccc(Cl)c4cccnc34)cn12	-16%	-1%
O=C(O)CCCCCNS(=O)(=O)c1ccc(Cl)cc1	-1%	7%
CCN1CCN(CC(O)COc2ccc3c(C)cc(=O)oc3c2)CC1 (stereo not drawn)	-9%	2%
COc1ccccc1CNC(=O)CCCCn1c(=O)c2ccccc2n(Cc2ccccc2C)c1=O	18%	.
COCCn1c(C)cc(C(=O)COC(=O)CCS(=O)(=O)c2ccc(C)cc2)c1C	1%	-20%
O=C(COc1cccnc1[N+](=O)[O-])NC1CCS(=O)(=O)C1 (stereo not drawn)	11%	-15%
CC(=O)c1ccc(OCC(=O)Nc2ccc3c(c2)CCC3)cc1	-6%	6%
C=C(C)c1cccc(C(C)(C)NC(=O)N2CCN(c3ccc(OC)cc3)CC2)c1	-16%	-6%
COc1ccc(CC(=O)Nc2nnc(-c3cccc([N+](=O)[O-])c3)s2)cc1	-13%	5%
COc1ccc(C(=O)NNC(=O)Cc2nc3ccccc3n2C)cc1	10%	.
Cc1ccc(NC(=O)CN(Cc2ccccc2)S(C)(=O)=O)cc1C	-5%	3%
O=C(NCCCl)Nc1cc([N+](=O)[O-])ccc1Cl	10%	3%
Cc1[nH]c2ccccc2c1C(=O)CSc1nccc(=O)[nH]1	0%	-5%
Cc1ccc(CN=c2c([N+](=O)[O-])nn(-c3cccc(Cl)c3)n2O)cc1	-15%	-9%
CC(C)Cn1c(=O)c2sccc2n2c(CCCC(=O)NC3CCN(Cc4ccccc4)CC3)nnc12	-12%	-5%
O=C(COC(=O)CCCC1=NS(=O)(=O)c2ccccc2N1)Nc1ccc(Br)cc1	1%&-2%	?
Cc1ccc(CNc2ccccc2C(=O)O)s1	-12%	-5%
Nc1cccc(-c2nc3ccccc3[nH]2)c1	-16%	-5%
Cc1cc(C)n2nc(SCCOc3ccccc3)nc2n1	-1%	-10%
Cc1ccc(CNC(=O)CN(C(=O)C2(C)CC(=O)N=C3C=CC=CN32)c2ccc(F)cc2)cc1 (stereo not drawn)	7%	?
Cc1cccc(NC(=O)c2cnc3scc(C)n3c2=O)c1	-4%	2%
COc1ccc(CN2C(=O)C(NC(=O)c3ccccc3OC)(C(F)(F)F)N=C2c2ccccc2)cc1 (stereo not drawn)	-18%	.
COc1ccc2c(-c3ccccc3)cc(SCC(=O)NC(N)=O)nc2c1	3%	-12%
CCNC(=O)COC(=O)/C=C/c1c(C)nn(Cc2cccc(OC)c2)c1Cl	3%	-7%
Cc1cccc(N2CCN(C(=O)c3cccn4c(=O)c5c(C)c(C)sc5nc34)CC2)c1C	-4%	11%
O=c1c(CCc2ccccc2)nc2cnc(N3CCOCC3)nc2n1C1CC1	.	5%
COc1ccc(Nc2nc(-c3ccccc3)cs2)cc1	-17%	2%
CCC(C)NC(=O)CCc1nnc2ccc(N3CCC(C)CC3)nn12 (stereo not drawn)	-13%	-12%
CCc1nnc2c(NCc3cccc(OC)c3)nc3ccccc3n12	-12%	.
CCOc1ccc(C(=O)OCC(=O)NCC2CCCO2)cc1 (stereo not drawn)	6%	.
COC(=O)C1=C(c2ccccc2)c2ccccc2S(=O)(=O)N1CC(=O)Nc1ccc(OC)cc1OC	-3%	.
Cc1ccn(S(=O)(=O)c2ccc(N3CCCC3=O)cc2)n1	32%	1%
CN1CCN(C(=S)C(=O)NCc2ccccc2)CC1	0%	13%
CC(=O)C1=C(C)OC(N)=C(C#N)C1c1cc2cccc(C)c2nc1Cl (stereo not drawn)	1%	9%[12.8 µM]
COc1ccc(/C=C/C(=O)Nc2ccc3nc4n(c(=O)c3c2)CCCC4)cc1	-15%	-7%
COC(=O)[C@@]12CCCN1[C@H](c1ccc(-c3ccc4c(c3)OCO4)cc1)[C@H]1C(=O)N(C)C(=O)[C@H]12	11%	.
CN1CCN(c2ccc([N+](=O)[O-])c(Sc3nc4ccccc4[nH]3)c2)CC1	-17%	-5%
New compounds follow.
SMILES	FEN1 inhibitor	N370S GC mod
Cc1ccnc(NC(=O)c2cccc([N+](=O)[O-])c2C)c1	12%	-2%
COc1cc(C(=O)Nc2ccc(NC(=O)c3ccccc3Cl)nc2)cc(OC)c1OC	-2%	-1%
Cn1ncc2c(NCc3ccccc3)nc(NCCCO)nc21	-9%	-16%
Cc1ccc(-c2nc3nc4ccccc4nc3n2Cc2ccco2)cc1	-3%	7%
CCn1c(C)nc2cc(C(=O)OC(C(F)(F)C(F)F)C(F)(F)C(F)F)ccc21	?	?
O=C(NCCc1ccc(Cl)cc1)C1CCC(=O)N1Cc1ccccc1Cl (stereo not drawn)	-4%	0%
O=C(NNC(=S)Nc1ccccc1C(F)(F)F)c1cccnc1	-1%	4%
COC(=O)c1ccccc1NC(=O)C1CCCN(c2ncnc3onc(C)c23)C1 (stereo not drawn)	-2%	.
CCC(=O)c1cccc2c1N=CC1=C(CC(C)(C)CC1=O)N2	-17%	11%
CCOC(=O)CNC(=O)C1Cc2ccccc2CN1S(=O)(=O)c1cccs1 (stereo not drawn)	11%	8%
CCOCCCNC(=S)N(CCO)Cc1cc2cc3c(cc2[nH]c1=O)OCCO3	-2%	7%
Cc1cc(C)cc(NC(=O)CN2C(=O)c3ccccc3C2=O)c1	5%	-13%
COC(=O)C1=C(O)/C(=C\c2ccc(OCC(=O)Nc3ccccc3)cc2)N=C1C	0%	-4%
COc1cccc(Cn2c(=O)c(-c3cc(F)cc(F)c3)nc3cncnc32)c1	.	20%
O=C(Oc1ccc(N2C(=O)C3C4CCC(C4)C3C2=O)cc1)c1ccco1 (stereo not drawn)	17%	-1%
Cc1cc(-c2ccc(S(=O)(=O)N3CCCCC3)s2)on1	-18%	-4%
CCOC(=O)C1CCN(C(=O)c2c(-c3ccccc3)noc2C)CC1	-1%	8%
O=C1CSC(c2ccccc2)N1Cc1ccccc1 (stereo not drawn)	.	-2%
Cn1c(Nn2cnnc2)nc2ccccc21	2%	10%
Oc1ccc(Br)cc1/C=N/Nc1nc(N2CCCCC2)nc(N2CCOCC2)n1	-7%	-3%

Some of these compounds in order of the N370S GC mod value, rising:
Molecule	N370S GC mod
O=C(NNC(=S)Nc1ccccc1C(F)(F)F)c1cccnc1	4%
Cn1c(Nn2cnnc2)nc2ccccc21	10%
CCC(=O)c1cccc2c1N=CC1=C(CC(C)(C)CC1=O)N2	11%

(continued)
SMILES	FEN1 inhibitor	N370S GC mod
O=C(c1ccncc1)N1CCC2(CCCN(c3ncccn3)C2)CC1	.	-18%
CCOCCCNC(=S)N1CCN(c2nc(-c3ccc(F)cc3)cs2)CC1	5%	-4%
Fc1cccc(NC(=S)NNc2ccccc2)c1	-15%	-2%
CCC1(C)NC(=O)N(CC(=O)Nc2cc(C)on2)C1=O (stereo not drawn)	13%	.
CCCS(=O)(=O)N1CC(=O)N(c2ccc(Cl)cc2)C(C)(C(=O)NC2CCCC2)C1 (stereo not drawn)	2%	.
O=C(COC(=O)CCNS(=O)(=O)c1cccs1)Nc1ccccc1	-1%	.
COc1cc(C2CC(=O)Oc3cc4c(cc32)OCO4)cc(OC)c1OC (stereo not drawn)	-11%	-7%[89.1 µM]
CC(C)(O)C(=O)NN(C(=O)c1ccccc1)c1cccc(Br)c1	3%	5%
Cc1cc(C)n(-c2nc3ccccc3nc2Nc2ccc3c(c2)OCO3)n1	-3%	7%
COCCn1nnnc1C(c1cccs1)N1CCN(c2cccc(C(F)(F)F)c2)CC1 (stereo not drawn)	-11%	14%
COc1ccccc1-c1cc(C(=O)Nc2ccccc2C(F)(F)F)no1	9%	.
CCCOc1ccc(C(=O)NCC(c2cccs2)N(C)C)cc1OC (stereo not drawn)	-6%	2%

Quoted from the listing.
COc1ccccc1-c1cc(C(=O)Nc2ccccc2C(F)(F)F)no1 | FEN1 inhibitor: 9%
COc1cc(C2CC(=O)Oc3cc4c(cc32)OCO4)cc(OC)c1OC (stereo not drawn) | N370S GC mod: -7%[89.1 µM]
